RECQ1 inh: RECQ1 (human) helicase inhibition. Potency, µM (highest dose often 57.3 µM), for the others: at the top dose activity, negative = inhibition, actives largely listed as inhibitors. RECQ1 DNA unwinding, red fluorescence kinetic read. P46063. 240,000 compounds, 0.54% hits;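 also: plate controls were vehicle for no effect and no enzyme for full effect; nearly all actives have a fitted effect of over 30% in size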
Target sequence (P46063 whole entry, looked up): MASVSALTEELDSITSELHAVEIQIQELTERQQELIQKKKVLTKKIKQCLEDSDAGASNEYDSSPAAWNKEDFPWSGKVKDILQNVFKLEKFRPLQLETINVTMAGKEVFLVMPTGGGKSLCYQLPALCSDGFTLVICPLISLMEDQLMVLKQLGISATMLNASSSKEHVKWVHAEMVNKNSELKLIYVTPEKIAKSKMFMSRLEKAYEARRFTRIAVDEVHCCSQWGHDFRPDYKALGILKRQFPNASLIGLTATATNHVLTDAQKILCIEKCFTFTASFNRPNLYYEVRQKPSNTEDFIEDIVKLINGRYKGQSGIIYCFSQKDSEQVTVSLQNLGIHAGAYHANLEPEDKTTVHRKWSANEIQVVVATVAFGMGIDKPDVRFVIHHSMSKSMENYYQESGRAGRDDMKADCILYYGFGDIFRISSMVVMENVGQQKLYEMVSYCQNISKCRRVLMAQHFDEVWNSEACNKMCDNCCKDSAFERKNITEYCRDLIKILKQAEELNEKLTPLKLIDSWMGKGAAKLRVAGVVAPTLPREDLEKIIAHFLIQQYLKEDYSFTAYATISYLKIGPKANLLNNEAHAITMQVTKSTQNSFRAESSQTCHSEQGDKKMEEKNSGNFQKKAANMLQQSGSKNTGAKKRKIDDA
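50 nM RECQ1T1 preincubated 15 min with compound in Tris pH 8.0 buffer with MgCl2, DTT, Tween-20 and 2.5 ug/ml poly(dI-dC); started with 200 nM TAMRA/BHQ-2 forked duplex and 2 mM ATP. Unwinding read as fluorescence (525/598 nm), two reads 2 h apart.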
JMJD2E inh: inhibitors of human JMJD2E histone demethylase; B2RXH2; JMJD2E catalytic domain, FDH-coupled NADH fluorescence (FDH is formaldehyde dehydrogenase); Potency, µM (series often up to 57.1 µM), inactives show top-dose activity change, negative = inhibition, most hits filed as inhibitors; 230,000 compounds, 1.6% hits; AID 2147; active = well fitted inhibition curve with a large enough effect, not every such curve was filed as active; inconclusive = small, poorly fitted or top-dose-only effect, or another doubt; inactive = no such curve, though single readings can be large or run the other way;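 also: 0% = wells with enzyme and -100% = buffer wells without enzyme; nearly all actives have a fitted effect of over 50% in size; many of its hits are not listed in these tables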
RGS12 GoLoco inh: blocks human Gai1 binding to RGS12 GoLoco peptide, red readout; P63096; Gai1:RGS12 GoLoco peptide FP, rhodamine, 10 min; Potency, µM (series often up to 61.6 µM), for inactives: top-dose activity, negative = inhibition, usual class: inhibitors; 230,000 compounds, 0.44% hits; active = well fitted inhibition curve with a large enough effect, not every such curve was filed as active; inactive = no such curve, though single readings can be large or run the other way; also: % is scaled to controls: 0 for no effect and ±100 for the full control effect; nearly all actives have a fitted effect of over 30% in size; many of its hits are not listed in these tables
Target sequence (P63096 whole entry, looked up): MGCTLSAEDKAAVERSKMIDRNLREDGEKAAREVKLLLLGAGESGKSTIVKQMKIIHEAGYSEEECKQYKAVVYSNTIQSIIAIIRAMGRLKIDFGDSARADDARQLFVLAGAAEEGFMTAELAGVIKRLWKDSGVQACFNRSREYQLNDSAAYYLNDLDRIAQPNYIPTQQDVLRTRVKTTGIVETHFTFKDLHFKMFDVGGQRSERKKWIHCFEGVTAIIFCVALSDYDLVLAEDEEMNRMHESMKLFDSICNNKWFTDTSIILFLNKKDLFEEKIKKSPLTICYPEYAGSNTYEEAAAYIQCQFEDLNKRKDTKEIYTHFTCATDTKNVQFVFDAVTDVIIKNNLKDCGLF
SMN2 splice enh: enhancers of SMN2 splice variant expression; AID 1458; Potency, µM (doses to about 46.1 µM), for inactives: at the top dose activity change, positive = activation, hits mostly activators; 210,000 compounds, 2.8% hits; HEK293 SMN2-luciferase splicing reporter, luminescence, 30-36 h; also: % of control where 0% means no effect; nearly all actives have a fitted effect of over 55% in size
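HEK293 cells carry an SMN2 minigene-luciferase reporter in which exon 7 inclusion puts luciferase in frame. Cells were seeded at 2000 cells/well, attached for 10-12 hours, then exposed to compounds for 30-36 hours at 37C before ONE-Glo luminescence.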
Luc counter: Kinase-Glo luciferase inhibition (counter-screen) | Q27757 | Kinase-Glo luciferase, ATP luminescence, 8 min | Potency, µM (highest dose often 38.3 µM), for the others: at the top dose activity change, negative = inhibition, most hits filed as inhibitors | 200,000 compounds, 0.28% hits | AID 1379; also: % is scaled to controls: 0 for no effect and ±100 for the full control effect; nearly all actives have a fitted effect of over 60% in size
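Inhibition of Kinase-Glo luciferase light generation was assessed at 10 uM ATP in pH 7.2 imidazole buffer, with luminescence measured after eight minutes at ambient temperature.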
Epigenetic derep: epigenetic control regulation, reporter derepression; murine LDR cells, GFP reporter derepression, 30 h; Potency, µM (highest dose often 53.9 µM), for inactives: at the highest dose GFP activation, usual class: activators; 280,000 compounds, 0.2% hits; also: % of control where 0% means no effect; nearly all actives have a fitted effect of over 60% in size
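GFP-positive cell count by laser-scanning cytometry (objects 20–120 um) after 30 h, 37 C compound exposure of murine LDR cells; reporter is CMV-GFP integrated at a silenced locus, inducible by HDAC or DNMT inhibitors.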
IMPase Li inh: cell-permeable IMPase inhibitors with lithium potentiation | CHO-M1 cells, IP1 TR-FRET (IP-One), carbachol + lithium | Potency, µM (series often up to 59.4 µM), without a hit: at the top dose activity, negative = IMPase inhibition, hits mostly inhibitors | 210,000 compounds, 0.35% hits | AID 1457;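 also: IP1 builds up when IMPase is blocked and the TR-FRET signal falls; plate controls were basal vehicle for no effect and high inhibitor control for full effect; nearly all actives have a fitted effect of over 50% in size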
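Concentration–response in CHO-M1 cells, lithium-potentiated; 30 min at 37C. IP1 detected by competitive TR-FRET after 10 min lysis at RT. Hill-fitted AC50.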
* hit, by the source's call; i = inactive; ? = inconclusive; nt = no result given; [ ] = another dose, or the depositor's remark. Unless noted, calls follow the shape of the dose curve; as a rule, active = well fitted curve in the direction sought with a large enough effect; inconclusive = small, poorly fitted or top-dose-only effect, or another doubt; inactive = no such curve, though single readings can be large; an effect the other way counts as inactive or inconclusive. Potency is read from the fitted curve at half-maximal effect. Not all compounds are listed; the hit share may differ from the screen's.

(1) CCCc1[nH]n(-c2ccc([N+](=O)[O-])cc2)c(=O)c1C=NCCc1c[nH]c2ccccc12
(2) CCOc1ccc(-c2nnc(-c3snc(-c4ccc(F)cc4)c3N=CN(C)C)o2)cc1
(3) O=C1C(c2ccc(F)cc2)N(Cc2ccc3c(c2)OCO3)C(=O)CN1C1CCCCCC1 (stereo not given)
(4) CC(C)NC(=S)N/N=C1\CCCCC1C1CCCCC1 (stereo not given)
(5) CC(=O)NS(=O)(=O)c1ccc(N=c2ssc3c2-c2cc(C)c(C)cc2NC3(C)C)cc1
(6) Cc1cc(C)c2nc(SCC(=O)N3CCCCC3)c(C#N)cc2c1
(7) COc1ccccc1N(CC(=O)N(CC(C)C)CC(C)C)S(=O)(=O)c1cccs1
(8) CC(C)CCNC(=O)C(c1ccco1)N(Cc1ccc(F)cc1)C(=O)c1snc(C(N)=O)c1N (stereo not given)
(9) Cc1ccc(C)c2nc(SCC(=O)NCc3cccs3)c(C#N)cc12
(10) O=C(Cc1ccccc1)Nc1cccc(-c2nnc(-c3ccco3)o2)c1

| assay / entry | 1 | 2 | 3 | 4 | 5 | 6 | 7 | 8 | 9 | 10 |
| --- | --- | --- | --- | --- | --- | --- | --- | --- | --- | --- |
| RECQ1 inh | -14% | i | i | i | -2% | i | -3% | -11% | i | 0% |
| JMJD2E inh | 5% | ? | 3% | 1% | 10% | 6% | -15% | ? | 0% | -3% |
| RGS12 GoLoco inh | 3% | -25% | -15% | 11% | 1% | 0% | 1% | 4% | 0% | 79%[activator] |
| SMN2 splice enh | -13% | 12% | 10% | -11% | 12% | -5% | -12% | 19% | 28% | 7% |
| Luc counter | 3% | -2% | -3% | -1% | 0% | 1% | 0% | -4% | -2% | -4% |
| Epigenetic derep | 0.1% | 1.0% | -0.7% | 0.0% | -0.9% | -1.0% | -1.1% | -4.0% | 2.2% | 4.0% |
| IMPase Li inh | 43%[activator][38.3 µM] | ? | 42%[activator][38.3 µM] | 15%[38.3 µM] | 21% | -27%[38.3 µM] | 22% | -2%[38.3 µM] | 5µM* | 26%[38.3 µM] |

(11) CCOC(=O)COc1ccc(/C=C2/SC(=Nc3ccccc3)N(Cc3cccnc3)C2=O)cc1OC
(12) COc1ccc(-c2c(C#N)c(N)nc(Sc3ccc(Cl)cc3)c2C#N)cc1
(13) Cc1ccc(CCNC(=O)C2CCCN(c3nc4ccccc4o3)C2)cc1 (stereo not given)
(14) CCOC(=O)c1cc(-c2ccccc2)sc1NC(=O)COC(=O)c1ccc(Cl)c(S(N)(=O)=O)c1
(15) CC1(C)Cc2c(sc3[nH]c(=S)n(Cc4ccco4)c(=O)c23)CO1
(16) Cc1ccc(C)c(SCC(=O)Nc2cccc(S(=O)(=O)NC3=NCCCCC3)c2)c1
(17) CC(C)CCNC(=O)C(C)N(C(=O)c1snc(C(N)=O)c1N)c1cnc2ccccc2c1 (stereo not given)
(18) COc1ccc(NC(C)=O)cc1NC(=O)CN1CCN(C2c3ccccc3-c3ccccc32)CC1
(19) O=C1C2C(c3ccccc3)CC=CC2C(c2ccc(C(F)(F)F)cc2)N1Cc1ccccc1 (stereo not given)
(20) CCN1CCN(C(=O)C2CC(c3ccc(F)cc3)=NO2)CC1 (stereo not given)

| assay / entry | 11 | 12 | 13 | 14 | 15 | 16 | 17 | 18 | 19 | 20 |
| --- | --- | --- | --- | --- | --- | --- | --- | --- | --- | --- |
| RECQ1 inh | -9% | i | -2% | i | ? | 0% | 3% | -4% | -13% | i |
| JMJD2E inh | 2% | -19% | 1% | 3% | ? | 2% | ? | -2% | nt | 4% |
| RGS12 GoLoco inh | 4% | -9% | nt | 13% | 53%[activator] | 2% | -1% | 1% | nt | 3% |
| SMN2 splice enh | 17% | nt | nt | -36%[inhibitor] | -17% | 25% | -51% | ? | nt | 10% |
| Luc counter | 16% | nt | nt | -1% | -5% | -1% | 1% | 3% | nt | -5% |
| Epigenetic derep | -5.2% | 0.0% | 0.8% | 1.2% | ? | -1.0% | -1.6% | -1.8% | nt | 1.3% |
| IMPase Li inh | 57%[activator][38.3 µM] | nt | nt | 13µM* | 3.5µM* | -3% | -9% | -3%[38.3 µM] | nt | 13%[38.3 µM] |

Pulled one by one from above (2):
(14) CCOC(=O)c1cc(-c2ccccc2)sc1NC(=O)COC(=O)c1ccc(Cl)c(S(N)(=O)=O)c1
(12) COc1ccc(-c2c(C#N)c(N)nc(Sc3ccc(Cl)cc3)c2C#N)cc1

| assay / entry | 14 | 12 |
| --- | --- | --- |
| RECQ1 inh | i | i |
| JMJD2E inh | 3% | -19% |
| RGS12 GoLoco inh | 13% | -9% |
| SMN2 splice enh | -36%[inhibitor] | nt |
| Luc counter | -1% | nt |
| Epigenetic derep | 1.2% | 0.0% |
| IMPase Li inh | 13µM* | nt |

Next part:
(21) CCOC(=O)Cn1c(C)cc(=O)c2ccccc21
(22) N#Cc1c(SCc2ccccc2)nc(N2CCOCC2)c2c1CCCC2
(23) c1cncc(C(c2nnnn2C2CCCC2)N2CCCC2)c1 (stereo not given)
(24) CC1=CC(C)(C)N(C(=O)CSc2nnc(-c3ccccc3)o2)c2ccc(C)cc21
(25) COc1ccc(C)cc1NC(=O)NC1CCN(Cc2ccccc2)CC1
(26) CCc1c(C#N)c(SCCC(=O)Nc2ccc(F)cc2)nc2c1C(=O)CC(C)(C)C2
(27) CC(C)CC(c1nnnn1C(C)C)N1CCN(c2cccc(Cl)c2)CC1 (stereo not given)
(28) CCc1nc(-c2cc3ccc(C)cc3[nH]c2=O)no1
(29) CCC(=O)N(CCC(c1ccccc1)c1ccco1)Cc1cccs1 (stereo not given)
(30) COc1cc(C(C[N+](=O)[O-])c2c(-c3ccccc3)cc3ccccn23)cc(OC)c1OC (stereo not given)

| assay / entry | 21 | 22 | 23 | 24 | 25 | 26 | 27 | 28 | 29 | 30 |
| --- | --- | --- | --- | --- | --- | --- | --- | --- | --- | --- |
| RECQ1 inh | 14% | -5% | i | -11% | -11% | ? | i | -7% | -19% | 0% |
| JMJD2E inh | -26% | 18% | 4% | -5% | 6% | 2% | 1% | ? | -3% | 1% |
| RGS12 GoLoco inh | 4% | -11% | 4% | 11% | 3% | -2% | 3% | 15% | 8% | 48%[activator] |
| SMN2 splice enh | 11% | -6% | -10% | -17% | -11% | 2% | -23% | ? | -55%[inhibitor] | nt |
| Luc counter | -1% | 0% | 1% | 2% | -1% | -7% | -1% | -4% | -2% | 6% |
| Epigenetic derep | -4.6% | -2.1% | -0.1% | -0.8% | 0.0% | -1.0% | 1.2% | 3.8% | -2.3% | 12% |
| IMPase Li inh | -6%[38.3 µM] | 5%[38.3 µM] | 7%[38.3 µM] | 12%[38.3 µM] | 23%[38.3 µM] | 43%[activator][38.3 µM] | 7%[38.3 µM] | ? | 20%[38.3 µM] | 37%[activator][38.3 µM] |

Next part, starting with the last 4 of the part before.
(27) CC(C)CC(c1nnnn1C(C)C)N1CCN(c2cccc(Cl)c2)CC1 (stereo not given)
(28) CCc1nc(-c2cc3ccc(C)cc3[nH]c2=O)no1
(29) CCC(=O)N(CCC(c1ccccc1)c1ccco1)Cc1cccs1 (stereo not given)
(30) COc1cc(C(C[N+](=O)[O-])c2c(-c3ccccc3)cc3ccccn23)cc(OC)c1OC (stereo not given)
(31) CCCCCn1c(=NC(C)=O)c(C#N)cc2c(=O)n3ccccc3nc21
(32) CO[C@H]1C=CO[C@]2(C)Oc3c(C)c(O)c4c(O)c(c5c(c4c3C2=O)NC2(CCN(CC(C)C)CC2)N=5)=NC(=O)C(C)=CC=C[C@@H](C)[C@@H](O)[C@@H](C)[C@@H](O)[C@@H](C)[C@@H](OC(C)=O)[C@@H]1C
(33) CCOC(=O)N1CCN(CC(=O)Nc2cc(C)nn2-c2nc3ccccc3s2)CC1
(34) O=C(c1ccco1)N(CCC(c1ccccc1)c1ccco1)Cc1ccccc1 (stereo not given)
(35) COc1ccc(Nc2cnn(-c3nc4ccccc4s3)c(=O)c2Cl)cc1
(36) CC(C)=CCCC(C)CN1CCC(N2CCC(C(=O)N3CCCC3)CC2)CC1 (stereo not given)
(37) CCCN(CCC)C(=O)/C=C/c1cccc([N+](=O)[O-])c1
(38) O=C(Nc1ccc2nn(-c3ccccc3)nc2c1)c1cccs1
(39) CC(=O)N(CCC1(c2ccc(C)cc2)CCOC(C(C)C)C1)Cc1ccco1 (stereo not given)
(40) CCCC(=O)C1=C(O)C(C(=O)OC)C(C)(C)CC1=Nc1cccc2ccccc12 (stereo not given)

| assay / entry | 27 | 28 | 29 | 30 | 31 | 32 | 33 | 34 | 35 | 36 | 37 | 38 | 39 | 40 |
| --- | --- | --- | --- | --- | --- | --- | --- | --- | --- | --- | --- | --- | --- | --- |
| RECQ1 inh | i | -7% | -19% | 0% | -4% | 0%[25.9 µM] | -5% | 11µM* | -25% | -9% | 6% | -2% | -25% | -13% |
| JMJD2E inh | 1% | ? | -3% | 1% | ? | -5%[25.5 µM] | -18% | -8% | -7% | 8% | -9% | ? | -12% | 3% |
| RGS12 GoLoco inh | 3% | 15% | 8% | 48%[activator] | 1% | 5%[21.6 µM] | 5% | 8% | -6% | 14% | -5% | -9% | -11% | 15% |
| SMN2 splice enh | -23% | ? | -55%[inhibitor] | nt | -3% | -8%[20.6 µM] | -4% | -18% | 10µM* | nt | nt | ? | nt | -2% |
| Luc counter | -1% | -4% | -2% | 6% | 1% | -6%[17.1 µM] | -4% | 3% | ? | -1% | nt | -3% | nt | 1% |
| Epigenetic derep | 1.2% | 3.8% | -2.3% | 12% | -0.1% | 0.0%[16.9 µM] | 0.0% | 1.0% | -1.1% | -3.9% | 13% | 11% | 5.2% | -0.3% |
| IMPase Li inh | 7%[38.3 µM] | ? | 20%[38.3 µM] | 37%[activator][38.3 µM] | -12%[38.3 µM] | -1% | 20% | 13% | -10% | 21% | nt | 24%[38.3 µM] | nt | 22% |

(41) O=C1CC(c2ccccc2)CC(O)=C1C=NCC1CCCO1 (stereo not given)
(42) COc1cccc(OCc2nnc(-c3cccs3)o2)c1
(43) Cc1ccc(-c2nc3cc(Br)cnc3nc2-c2ccc(C)cc2)cc1
(44) CCOC(=O)c1sc(Nc2nc3c(OC)cccc3s2)cc1C
(45) COc1ccc(CNCC(O)(c2ccc(Cl)cc2)c2ccc(Cl)cc2)cc1

| assay / entry | 41 | 42 | 43 | 44 | 45 |
| --- | --- | --- | --- | --- | --- |
| RECQ1 inh | i | -8% | 0% | -4% | -7% |
| JMJD2E inh | 0% | -21% | -2% | -11% | -3% |
| RGS12 GoLoco inh | nt | 10% | 5% | 29% | 9% |
| SMN2 splice enh | nt | 8% | ? | -108%[inhibitor] | -11% |
| Luc counter | nt | -1% | 0% | 2% | -3% |
| Epigenetic derep | -1.0% | -1.7% | -1.3% | -1.0% | -1.2% |
| IMPase Li inh | nt | -1% | 2% | -4% | 15%[38.3 µM] |
